StopGo FLuc – FMDV 2A StopGo reporter, firefly signal. HEK cells with a luciferase reporter of 2A StopGo recoding. Potency, µM (top dose mostly 57.5 µM), for the others: at the top dose signal change, negative = less light. 120,000 compounds, 0.23% hits. AID 1745856; active = well fitted falling curve with a large enough effect; inconclusive = small, poorly fitted or top-dose-only effect; inactive = no such curve, though single readings can be large or run the other way; note: nearly all actives have a fitted effect of over 60% in size; overnight with compound
2A Renilla – lowers the Renilla signal of an FMDV 2A StopGo reporter. HEK cells with a luciferase reporter of 2A StopGo recoding. Potency, µM (series often up to 57.5 µM), without a hit: at the top dose signal change, negative = less light. 120,000 compounds, 0.32% hits. AID 1745857; active means well fitted falling curve with a large enough effect; inconclusive means small, poorly fitted or top-dose-only effect; inactive means no such curve, though single readings can be large or run the other way; note: nearly all actives have a fitted effect of over 55% in size; overnight with compound
Starred values were filed as active, the others as inactive; ? = inconclusive; [ ] = dose if it differs, or a comment. % is set by controls: 0 for no effect and ±100 for the full control effect; potency is the fitted concentration of half-maximal effect.

SMILES	StopGo FLuc	2A Renilla
O=C(CNc1cccc(S(=O)(=O)N2CCCCCC2)c1)N1CCN(C(=O)c2cccs2)CC1	2%	22%
CN(Cc1ccccc1N1CCCC1)C(=O)c1nn(C)c(=O)c2ccccc12	?	?
Cc1ccc(N/N=C/c2ccc(Br)cc2)cc1Cl	264%[activator]	27%
Cc1ccc(NC(=O)C2CCC(CNS(=O)(=O)c3csc(C(N)=O)c3)CC2)cc1Cl (centres undefined)	-15%	3%
COc1ccc(OC)c(C2C=C(C34CC5CC(CC(C5)C3)C4)NC(=S)N2)c1 (centres undefined)	-10%	23%
COc1ccccc1CNC(=O)c1cc(C)nc2ccc(C)cc12	-10%	58%[activator]
COc1ccc(-c2cc3ccc(OCC#N)cc3oc2=O)c(OC)c1	1%	31%
COc1ccc(-n2nnnc2SCc2cc(=O)oc3cc(O)ccc23)cc1	-12%	-2%
CCC(=O)c1ccc(OCc2ccc(Cl)c(Cl)c2)cc1	27%	16%
Cc1ccc(C)c(C(=O)/C=C\N(C)C)c1	23%	20%
COc1ccc(NC(=O)C2CCN(C(=O)c3sc4nc[nH]c(=O)c4c3C)CC2)cc1Cl	-22%	-14%
CN(C(=O)C1CCN(c2oc(-c3ccco3)nc2C#N)CC1)c1ccccc1	-12%	-19%
CCc1ccc(NC(=O)CSC2=Nc3ccccc3C3=NC(CC(=O)NCc4ccccc4)C(=O)N23)cc1 (centres undefined)	-16%	6%
COCCCNC(=O)C1CCC(Cn2c(=O)c3sccc3n(C)c2=O)CC1 (centres undefined)	-4%	7%
COc1ccc(-c2noc(CNC(=O)c3ccco3)n2)cc1	12%	0%
CCOc1ccc(N2CC(c3nc4ccccc4n3Cc3cccc(C)c3)CC2=O)cc1 (centres undefined)	-7%	-1%
O=C(Nc1ccc(F)cc1)c1cc2cc(Cl)ccc2[nH]1	84%[activator]	23%
COc1ccc(-c2c(NC(=O)c3cccc([N+](=O)[O-])c3)oc3c(C)cccc3c2=O)cc1OC	7%	-8%
COCCCNC(=O)CN1C(=O)c2cccnc2Sc2ccccc21	-10%	2%
CC(C)(C)OC(=O)N/N=C/c1ccccc1OCC(=O)O	139%[activator]	9%
O=C(Nc1ccc(F)cc1F)c1cc(=O)c2ccccc2o1	15%	-10%
O=C(C1CCN(S(=O)(=O)Cc2c(F)cccc2Cl)CC1)N1CCCC1	18%	17%
Cn1c(=O)oc2cc(S(=O)(=O)NCCC(=O)Nc3ccc(F)cc3F)ccc21	-6%	26%
CN(Cc1ccsc1)C(=O)c1ccc(C#N)cc1	35%[activator]	25%
COc1ccc(-c2nnc(SCc3nc(-c4ccco4)no3)n2CCc2ccccc2)cc1	18%	88%[activator]

Three entries out of the list, sorted by heavy-atom count, descending.
SMILES	StopGo FLuc	2A Renilla
CCc1ccc(NC(=O)CSC2=Nc3ccccc3C3=NC(CC(=O)NCc4ccccc4)C(=O)N23)cc1 (centres undefined)	-16%	6%
Cn1c(=O)oc2cc(S(=O)(=O)NCCC(=O)Nc3ccc(F)cc3F)ccc21	-6%	26%
Cc1ccc(N/N=C/c2ccc(Br)cc2)cc1Cl	264%[activator]	27%

Next part
SMILES	StopGo FLuc	2A Renilla
CCOc1ccccc1C(=O)Nc1cc2c(cc1N1CCCCC1)n(C)c(=O)n2C	-6%	3%
CC(=O)c1ccc(NC(=O)c2noc3c2CCc2ccccc2-3)cc1	121%[activator]	9%
Cn1nc(C(=O)N2CCN(Cc3cccc4ccccc34)CC2)c2ccccc2c1=O	-23%	-17%
CCNC(=O)c1ccc2c(c1)sc1nc(-c3cccc(OC)c3)cn12	85%[activator]	-29%
CCOP(=O)(OCC)c1nc(Cc2ccc(Cl)cc2)oc1NCc1ccco1	1%	12%
Cc1ccc2c(=O)cc(C(=O)NCC(c3cccs3)N3CCCCC3)oc2c1C (centres undefined)	-4%	5%
CCOC(=O)C1CCN(C(=O)CSc2n[nH]c(-c3ccc(F)cc3)n2)CC1	-26%	-16%
NC(=O)Nc1ccc(NC(=O)c2nccnc2N)cc1	0%	10%
Cc1ccc(OCc2cc(=O)n3cc(C)sc3n2)c(C)c1	70%[activator]	-1%
CCCCNC(=O)C1CCC(CNS(=O)(=O)c2ccc(Cl)cc2)CC1 (centres undefined)	-6%	-8%
CCCNC(=O)CN1CCN(Cc2cccc3cccnc23)CC1	24%	-10%
COc1ccc2c(c1)c(=O)c(C(=O)c1ccc(Cl)cc1)cn2CC(=O)Nc1ccc2c(c1)OCO2	-17%	-12%
O=C(Cn1cnc2ccc(Br)cc2c1=O)N1CCCC1c1ccc2c(c1)OCCCO2 (centres undefined)	2%	3%
CC(=O)Nc1ccc(S(=O)(=O)NC2=NCN(C(C)C)CN2)cc1	19%	10%
O=C(Cn1cnc2cc(F)ccc2c1=O)Nc1cc2c(cc1Cl)OCCO2	2%	-5%
COc1ccc(C(CNC(=O)c2oc3ccc(C)cc3c2C)N2CCOCC2)cc1 (centres undefined)	-4%	-3%
CCC1Oc2ccccc2N(CC(=O)NCCc2ccc(OC)c(OC)c2)C1=O (centres undefined)	-17%	-11%
CCOCCCNC(=O)c1c(NC(=O)Cc2coc3ccc(C)cc23)sc2c1CCC2	-12%	-13%
CCN1CCN(CCCNC(=O)Cn2c(-c3cccs3)cc3cc(Cl)ccc32)CC1	46%[activator]	-20%
COc1ccc(Nc2nc3ccccc3nc2NS(=O)(=O)c2ccc(C)c(C)c2)cc1	8%	74%[activator]
Cc1cc(C)cc(NC(=O)C(C)Sc2ccccc2)c1 (centres undefined)	47%[activator]	1%
Cc1ccc(CN(C)C(=O)c2cc(-c3cccnc3)nc3ccccc23)o1	23%	69%[activator]
COc1ccc(NC(=O)CSc2nc(-c3ccccc3)nc3cc(=O)[nH]n23)cc1	-14%	-15%
O=C(Cc1ccc(Cl)cc1)NCCc1csc2nc(-c3ccccc3F)nn12	0%	22%
Cc1cc2oc(C(=O)NCC(c3ccco3)N3CCOCC3)cc(=O)c2cc1Cl (centres undefined)	11%	19%

Single records, as listed above.
Profile of `CCOC(=O)C1CCN(C(=O)CSc2n[nH]c(-c3ccc(F)cc3)n2)CC1` → StopGo FLuc: -26%; 2A Renilla: -16%
Profile of `CCCCNC(=O)C1CCC(CNS(=O)(=O)c2ccc(Cl)cc2)CC1` (centres undefined) → StopGo FLuc: -6%; 2A Renilla: -8%
Profile of `COc1ccc(Nc2nc3ccccc3nc2NS(=O)(=O)c2ccc(C)c(C)c2)cc1` → StopGo FLuc: 8%; 2A Renilla: 74%[activator]

New compounds follow:
SMILES	StopGo FLuc	2A Renilla
Cc1ccc2c(=O)cc(C(=O)Nc3cccc(Cl)c3)oc2c1C	-18%	-15%
COc1ccc(-n2c3c(c(=O)[nH]c2=O)C(C(F)(F)F)(C(F)(F)F)N=C(c2ccncc2)N3)cc1	11%	14%
Cc1ccc2c(CNCc3ccc(C)o3)c(C(=O)O)n(Cc3ccc(F)cc3)c2c1	-22%	5%
Cc1cccc(NC(=O)CCNC(=O)Cc2ccccc2)c1C	-1%	-8%
COc1ccc(NC(=O)CN(C)C(=O)Cn2[nH]c(=O)c3ccccc3c2=O)cc1	-8%	-8%
COc1ccc(C(=O)COc2ccc(C#N)cc2OC)cc1Br	-1%	69%[activator]
CCN1CCC(N(Cc2ccco2)C(=O)Nc2cc(Cl)ccc2C(=O)OC)CC1	-8%	-7%
O=C(NC1CCCCC1)c1ccccc1NC(=O)C1CCN(S(=O)(=O)Cc2ccccc2)CC1	20%	37%[activator]
Cc1onc(-c2c(F)cccc2Cl)c1C(=O)Nc1nnc(C(C)C)s1	17%	18%
Cc1ccccc1OCC(=O)OCc1cc(=O)n2ccsc2n1	1%	-4%
CCc1ccc(S(=O)(=O)NCc2nc3cccnc3n2Cc2ccccc2Cl)cc1	-16%	170%[activator]
COc1cc(/C=C(/C#N)C(=O)OC(C)C)cc(Cl)c1OC	-9%	1%
Cc1ccc(NC(=O)CSc2ccccc2C(=O)Nc2ccc3c(c2)OCCCO3)cc1	0%	-14%[1.06 µM]
O=C(Cn1nnc(-c2ccccc2Cl)n1)N1CCC(c2nc3ccccc3s2)CC1	-10%	-8%
COc1ccc(C(=O)Nc2nc(C)c(C(=O)N(C)C)s2)cc1OC	179%[activator]	24%
Cc1nc2ccc(Cl)cc2cc1C(=O)N(C)CCOc1ccc(F)cc1	-18%	-7%
O=C1CSC(c2c(F)cccc2Cl)c2cn[nH]c2N1 (centres undefined)	20%	17%
CCN(Cc1ccc(OC)c(F)c1)C(=O)c1nn(C)c(=O)c2ccccc12	8%	1%
CCOc1cccc(CC(=O)N2CCc3c([nH]c4ccccc34)C2c2ccc(Cl)cc2)c1OCC (centres undefined)	-8%	-5%
Cc1cccc(NC(=O)CSc2nnc(Cc3ccccc3)n2-n2cccc2)c1	-9%	51%[activator]
O=C(CN1C(=O)c2cccc3cccc1c23)Nc1ccccc1Br	-19%	-10%
Cc1ccc(S(=O)(=O)c2nnn(CC(=O)Nc3ccccc3C)c2N)cc1C	-12%	2%
COc1ccc(CNC(=O)C2CCCN(S(=O)(=O)c3cc(-c4noc(C)n4)ccc3C)C2)cc1 (centres undefined)	?	?
COc1ccc(Cl)cc1NC(=O)CSC1=Nc2ccccc2C2=NC(CCC(=O)NCc3ccc(F)cc3)C(=O)N12 (centres undefined)	-10%	3%
COc1ccc(C(=O)Nc2cccc3cccnc23)cc1Cl	46%[activator]	4%

Exported with each value named: 2 of the compounds above.
canonical_smiles: CN(Cc1ccccc1N1CCCC1)C(=O)c1nn(C)c(=O)c2ccccc12
  StopGo FLuc = ?
  2A Renilla = ?
canonical_smiles: Cc1ccc(N/N=C/c2ccc(Br)cc2)cc1Cl
  StopGo FLuc = 264%[activator]
  2A Renilla = 27%

Further structures follow.
SMILES	StopGo FLuc	2A Renilla
Cc1ccc(CNC2CC3CCC2(C)C3(C)C)s1 (centres undefined)	0%	15%
CN1CCN(c2oc(-c3ccc(S(=O)(=O)N4CCCCC4)cc3)nc2C#N)CC1	9%	17%
O=C(CSc1n[nH]c(-c2ccccc2Cl)n1)N1CCN(c2ccccc2)CC1	11%	-8%
CCNc1c(NC(=O)Nc2cccc(C)c2C)c(=O)oc2ccccc12	12%	6%
CC1CCN(c2nc3ccc(C(=O)NCc4ccccc4)cc3s2)CC1	?	108%[activator]
COc1ccc(Cn2ccnc2SCC(=O)NCc2ccco2)cc1	-1%	12%
CN(C)c1ccc(C(CNC(=O)COc2ccccc2)N2CCOCC2)cc1 (centres undefined)	-25%	-16%
Cc1nc2scc(C)n2c(=O)c1S(=O)(=O)Nc1ccc(N2CCOCC2)cc1	-15%	3%
C#CCN1CC(N(C)CCCO)CS1(=O)=O (centres undefined)	-6%	-6%
CN(C(=O)Cn1nc(Cc2cccnc2)c2ccccc2c1=O)c1ccccc1Cl	-5%	11%
CCC(NC(=O)C1CCOC1)C12CC3CC(CC(C3)C1)C2 (centres undefined)	-6%	7%
COc1cccc(-c2nc(CS(=O)(=O)CC(=O)Nc3ccc(F)cc3F)c(C)o2)c1	-11%	24%
CCOC(=O)/C(C(N)=O)=C(\OC)C(=O)CC(=O)c1ccc(C)cc1	-5%	2%
CCCn1cc(C(=O)n2nc(C)cc2C)c(S(=O)(=O)N2CCN(c3ccc(Cl)cc3)CC2)n1	-11%	13%
O=C(Nc1ccccc1C(F)(F)F)c1cccc(Cl)c1	133%[activator]	35%[activator]
Cc1ccsc1CNC(=O)/C=C/c1ccncc1	18%	-1%
CNC(=O)CSc1nc2c(c(C(F)(F)F)c1C#N)CC(C(C)(C)C)CC2 (centres undefined)	?	?
Cc1ccc(-c2cn3c(n2)sc2cc(C(=O)NCCCN4CCCCCC4)ccc23)cc1	?	?
O=C(NC1(C(F)(F)F)C(=O)Nc2c1c(=O)[nH]c(=O)n2-c1ccc(Cl)cc1)c1cccs1 (centres undefined)	24%	19%
O=C(Nc1ccc(F)cc1)C1=C(c2ccccc2)SCCO1	-6%	-3%
COc1ccc(/C=C\c2onc(C)c2S(=O)(=O)N2CCC(C(=O)Nc3cccc(C)c3C)CC2)cc1	-14%	-6%
COc1cc2c(cc1OC)C(COc1ccc3c(C)cc(=O)oc3c1)N(C(=O)c1cc(Cl)ccc1OC)CC2 (centres undefined)	-20%	8%
Cc1ccc(S(=O)(=O)c2nnn3c2nc(N(C)Cc2ccccc2)c2cc(Cl)ccc23)cc1C	3%	-3%
CC(C)N(C(=O)c1ccccc1F)C(C)C	-6%	7%
CCOC(=O)c1c(C)[nH]c(C)c1S(=O)(=O)N(C)CC(=O)Nc1cc(C)cc(C)c1	-15%	10%
COc1ccc(N2Cc3cccc(C(=O)Nc4cc(C)cc(C)c4)c3C2=O)cc1	-20%	-16%
C/C=C/Cn1c(SCCC)nc2c1c(=O)[nH]c(=O)n2C	2%	-9%
C(=C\c1ccccc1)/CNCC1CCCO1 (centres undefined)	26%	15%
Cc1ccc(-c2nnc(SCC(=O)c3ccc(Cl)cc3)n2-c2ccccc2)cc1	-21%	-8%

Some of the compounds tested; rates above refer to the full screens.
